Screening results as filed in PubChem.
Shh pathway inh – Sonic Hedgehog pathway inhibition. Shh-LIGHT2 Gli-luciferase reporter, 30 h. inhibition, % (concentration not given with the values). hit rate 2.1% among 22,000;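 active means replicate mean of 65% or more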;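 further: pathway switched on by Shh-conditioned medium diluted 1 in 25 in low serum; 100 nL library stock added to about 40 µL; 0% = median of neutral wells and 100% = positive control level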
MITF inh – blocks MITF activity; TRPM1 promoter luciferase, luminescence, 24 h; inhibition, % (concentration not given with the values); hit rate 0.28% among 37,000; AID 2240;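 active means most replicates at 85% or more, or half of them and the mean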;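 further: human melanocyte line stably carrying TRPM1 promoter luciferase reporter; 0% = vehicle wells and 100% = a positive control; the first replicate is given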
YB-1 expr inh – YB-1 expression inhibition. U2OS, qRT-PCR YB-1 vs CDIP delta delta Cp, 16 h; active compounds read high; zero = DMSO, each unit about twofold. hit rate 0.37% among 30,000. delta delta Cp (YB-1 minus CDIP) (test concentration not listed);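 active means delta delta Cp rounded down to an integer at or above 3, about 3 SD of DMSO wells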;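 further: higher means less YB-1 transcript or more CDIP transcript relative to DMSO; stock transfer was 100 nL into about 100 µL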
PD-1 reversal – activators reversing PD-1 mediated T-cell inhibition | AID 2316 | activation, % (no concentration beside the values) | 29,000 tested, under 10 active | primary human CD4 T cells, PD-L1 beads, CellTiter-Glo 96 h;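 active means replicate mean of 50% or more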;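 further: 0% = median vehicle wells and 100% = positive control; 100 nL library stock added to about 50 µL; numbers are from one replicate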
* = called active by the depositor; . = no result given.

SMILES | Shh pathway inh | MITF inh | YB-1 expr inh | PD-1 reversal
CC(NS(=O)(=O)c1ccc(Br)cc1)C(=O)Nc1ccccc1 (stereo not given) | . | 17.5 | . | 0.8
CC(C)NC(=O)Nc1ccc2c(c1)C(=O)N([C@@H](C)CO)C[C@H](C)[C@H](CN(C)C(=O)Nc1cccc3ccccc13)O2 | . | -8.1 | -0.164 | 1.9
COc1ccc(NC(=O)Nc2ccc3c(c2)C(=O)N([C@H](C)CO)C[C@H](C)[C@H](CN(C)S(=O)(=O)c2ccc(Cl)cc2)O3)cc1 | . | -33.5 | 0.427 | -1.3
C[C@H](CO)N1C[C@H](C)[C@H](CN(C)C(=O)NC2CCCCC2)Oc2ccc(NC(=O)CCCCCC(=O)Nc3ccccc3N)cc2C1=O | . | -6.8 | 0.625 | 2.2
C=CCN1C(=O)C2(C(C#N)=C(N)Oc3c2c(=O)oc2ccccc32)c2ccccc21 (stereo not given) | -32.2 | -5.4 | -0.134 | 6.0
C[C@H]1CN([C@@H](C)CO)C(=O)c2cccc(N(C)C)c2O[C@@H]1CN(C)Cc1ccc(C(F)(F)F)cc1 | -18.5 | 10.9 | 0.699 | -3.9
CCn1c(SCC(=O)N2c3ccccc3CCc3ccccc32)nnc1-c1ccco1 | . | 3.1 | . | -1.7
CC(C)NC(=O)Nc1cccc2c1O[C@@H](CN(C)C(=O)Nc1ccc(F)cc1)[C@@H](C)CN([C@H](C)CO)C2=O | 0.1 | -3.6 | 0.588 | -0.2
C[C@@H]1CN([C@H](C)CO)C(=O)Cc2cc(NC(=O)Cc3cn(C)c4ccccc34)ccc2O[C@@H]1CN(C)CC1CCCCC1 | -7.6 | 22.8 | -0.23 | 2.2
CSc1ccccc1NC(=O)CN(c1cccc([N+](=O)[O-])c1)S(C)(=O)=O | . | -2.6 | . | 0.8
NC(=O)c1nnc2cc(-c3ccccc3)nn2c1N | -226.2 | 21.7 | 0.342 | 2.5
C[C@H]1CN([C@@H](C)CO)C(=O)c2cccc(NC(=O)C3CCCCC3)c2O[C@@H]1CN(C)Cc1ccncc1 | 7.1 | -11.7 | -0.134 | 2.5
COc1ccc(NC(=O)Nc2cccc3c2O[C@@H](CN(C)C(=O)Nc2c(C)noc2C)[C@@H](C)CN([C@H](C)CO)C3=O)cc1 | -12.8 | 4.1 | -0.13 | 0.8
N#Cc1c(C(F)(F)F)cc(-c2cccs2)nc1SCC(=O)Nc1c(F)cccc1F | . | -23.3 | . | 1.5
C[C@@H]1CCCCO[C@@H](CN(C)C(=O)Nc2ccc(F)cc2)[C@@H](C)CN([C@H](C)CO)C(=O)c2cc(NC(=O)CCCN(C)C)ccc2O1 | . | -8.5 | 0.404 | -0.1
C[C@@H]1CN([C@H](C)CO)C(=O)c2cc(NC(=O)Nc3ccccc3)ccc2O[C@H]1CN(C)S(=O)(=O)c1ccccc1 | . | -34.6 | -0.00656 | -0.7
COc1ccc(NC(=O)Nc2ccc3c(c2)CC(=O)N([C@@H](C)CO)C[C@H](C)[C@H](CN(C)C)O3)cc1 | 45.4 | 1.7 | -0.294 | 1.0
COc1ccc(N(C(=O)c2ccncc2)S(=O)(=O)c2ccc3c4c(cccc24)C(=O)N3C)cc1 | . | 15.9 | . | 0.8
CCC1CCc2nc(SCC(=O)Nc3cccc(OC)c3)c(C#N)c(C(F)(F)F)c2C1 (stereo not given) | . | 8.9 | . | -0.4
C[C@H](CO)N1C[C@H](C)[C@H](CN(C)C(=O)Nc2ccc(F)cc2)Oc2ccc(NC(=O)NC3CCCCC3)cc2C1=O | 5.3 | -2.2 | 0.177 | .
C[C@H](CO)N1C[C@H](C)[C@@H](CN(C)C(=O)Nc2ccc(C(F)(F)F)cc2)Oc2ccc(NS(=O)(=O)c3ccc(Cl)cc3)cc2C1=O | -0.2 | 6.3 | 0.0054 | -0.1
C[C@H](CO)N1C[C@H](C)[C@H](CN(C)C(=O)Nc2ccccc2)Oc2ccc(NS(=O)(=O)c3ccc(F)cc3)cc2CC1=O | -9.1 | 3.2 | -0.0683 | 0.8
COc1ccc(S(=O)(=O)Nc2ccc3c(c2)C(=O)N([C@H](C)CO)C[C@H](C)[C@H](CN(C)Cc2ccc(C(=O)O)cc2)OCCCC[C@@H](C)O3)cc1 | 29.5 | 2.9 | 0.162 | 3.0
C[C@@H]1CN([C@H](C)CO)C(=O)c2cccc(NC(=O)Nc3cccc4ccccc34)c2O[C@@H]1CN(C)Cc1ccc(-c2ccccc2)cc1 | -40.8 | 13.5 | -0.166 | -3.8
Cc1noc(C)c1S(=O)(=O)Nc1ccc2c(c1)C(=O)N([C@@H](C)CO)C[C@H](C)[C@@H](CN(C)C)O2 | -13.3 | -2.2 | -0.0112 | 0.9

As entered above:
MITF inh, C[C@H](CO)N1C[C@H](C)[C@H](CN(C)C(=O)NC2CCCCC2)Oc2ccc(NC(=O)CCCCCC(=O)Nc3ccccc3N)cc2C1=O : -6.8
YB-1 expr inh, CC(C)NC(=O)Nc1ccc2c(c1)C(=O)N([C@@H](C)CO)C[C@H](C)[C@H](CN(C)C(=O)Nc1cccc3ccccc13)O2 : -0.164
MITF inh, C[C@@H]1CCCCO[C@@H](CN(C)C(=O)Nc2ccc(F)cc2)[C@@H](C)CN([C@H](C)CO)C(=O)c2cc(NC(=O)CCCN(C)C)ccc2O1 : -8.5

Remaining list, next part
SMILES | Shh pathway inh | MITF inh | YB-1 expr inh | PD-1 reversal
COc1ccc(NC(=O)N(C)C[C@@H]2Oc3ccc(NC(=O)Nc4ccc5c(c4)OCO5)cc3C(=O)N([C@@H](C)CO)C[C@H]2C)cc1 | -11.4 | -8.1 | -0.231 | 0.0
C[C@H]1CN([C@@H](C)CO)C(=O)c2cc(NC(=O)Nc3cccc4ccccc34)ccc2O[C@@H]1CN(C)C(=O)NC1CCCCC1 | 9.1 | 0.0 | 0.245 | 0.1
CC1CCN(C(=O)c2cc(Cl)ccc2Cl)CC1 | 10.2 | 0.6 | 0.246 | -3.1
Cc1ccc(C2=NNC(=O)C(c3cn(CCC#N)c4ccccc34)C2)cc1 (stereo not given) | . | 14.2 | . | -2.3
COC(=O)c1cccc(NC(=O)CSc2nc(-c3ccc(C)cc3)cc(C(F)(F)F)n2)c1 | . | 0.9 | . | 1.3
Cc1noc(C)c1S(=O)(=O)Nc1ccc2c(c1)CC(=O)N([C@H](C)CO)C[C@@H](C)[C@H](CN(C)Cc1ccc3c(c1)OCO3)O2 | 12.5 | -2.5 | 0.153 | -0.8
Cc1ccc([N+](=O)[O-])cc1NC(=O)CN(C1CCCCC1)S(=O)(=O)c1ccc(Cl)cc1 | . | 32.0 | . | -0.5
C[C@H]1CN([C@@H](C)CO)C(=O)Cc2cc(NC(=O)CCCCCC(=O)Nc3ccccc3N)ccc2O[C@@H]1CN(C)S(=O)(=O)c1ccc(F)cc1 | . | -6.6 | -0.213 | 3.1
C[C@H](CO)N1C[C@H](C)[C@@H](CN(C)Cc2ccncc2)Oc2ccc(NS(=O)(=O)c3cccs3)cc2C1=O | . | 6.3 | -0.0745 | 0.6
O=C(Cn1nnc2ccccc21)NCCN1CCCC1 | . | -5.0 | . | 1.7
COc1ccc(S(=O)(=O)N(C)C[C@@H]2Oc3c(NC(=O)Nc4ccc5c(c4)OCO5)cccc3C(=O)N([C@H](C)CO)C[C@H]2C)cc1 | -15.0 | -2.3 | -0.381 | .
CN1C2CCC1CC(NC(=O)c1nn(C)c3ccccc13)C2 (stereo not given) | 2.6 | -8.0 | -0.38 | 6.7
Cc1cc(N(CC(=O)Nc2ccccc2Cl)S(C)(=O)=O)ccc1Br | . | 13.7 | . | -0.2
C[C@H]1CN([C@@H](C)CO)C(=O)Cc2cc(NC(=O)C3CC3)ccc2O[C@H]1CN(C)S(=O)(=O)c1cn(C)cn1 | 5.0 | -2.1 | 0.292 | 0.4
C[C@@H]1CN([C@H](C)CO)C(=O)c2cccc(N(C)C)c2O[C@@H]1CN(C)C(=O)NC1CCCCC1 | -5.2 | 4.7 | -0.0195 | 1.1
C[C@H]1CN([C@@H](C)CO)C(=O)c2cc(NC(=O)Nc3cccc4ccccc34)ccc2O[C@@H]1CN(C)S(C)(=O)=O | . | -9.0 | -0.32 | 2.4
C[C@@H]1CN([C@H](C)CO)C(=O)Cc2cc(NC(=O)CCCN(C)C)ccc2O[C@H]1CN(C)CC1CCCCC1 | 18.8 | 0.1 | -0.0255 | -0.7
COc1ccc(NC(=O)N(C)C[C@@H]2Oc3c(NS(=O)(=O)c4ccc(C)cc4)cccc3C(=O)N([C@@H](C)CO)C[C@H]2C)cc1 | -9.4 | 5.4 | -0.0823 | 2.7
COc1ccc(C)cc1S(=O)(=O)N(C)CC(=O)N1CCCCC1 | . | -5.5 | . | 0.2
C[C@@H]1CCCCO[C@H](CN(C)C(=O)CCCN(C)C)[C@@H](C)CN([C@H](C)CO)C(=O)c2cc(NC(=O)Nc3ccc4c(c3)OCO4)ccc2O1 | . | -6.3 | -0.322 | .
C[C@@H]1CN([C@H](C)CO)C(=O)Cc2cc(NS(=O)(=O)c3ccccc3)ccc2O[C@H]1CN(C)Cc1ccccc1 | 16.8 | 1.9 | 0.232 | .
CC(C)(C)NC(=S)NCC1CC1 | . | 21.6 | -0.364 | 0.9
C[C@H]1CN([C@@H](C)CO)C(=O)c2cc(NC(=O)CCN3CCOCC3)ccc2O[C@H]1CN(C)C(=O)Nc1ccc(F)cc1 | -36.2 | -1.8 | 0.225 | 0.5
C[C@H]1CN([C@@H](C)CO)C(=O)c2cc(NC(=O)Nc3ccc(F)cc3)ccc2O[C@H]1CN(C)Cc1ccc(Cl)c(Cl)c1 | . | 5.3 | 0.971 | 1.1
COc1ccc(C(=O)CSc2n[nH]c(-c3ccccc3)n2)cc1OC | . | -11.2 | . | -2.6

Other compounds follow.
SMILES | Shh pathway inh | MITF inh | YB-1 expr inh | PD-1 reversal
CC(=O)c1ccc(NC(=O)COc2ccccc2C(N)=O)cc1 | . | -75.2 | . | 2.5
CC1OC(OC2C(OC3C(O[C@H]4CC[C@@]5(C)C(CC[C@]6(C)C5CC=C5[C@@H]7CC(C)(C)C[C@@H](O)[C@]7(C)CC[C@]56C)C4(C)C)OC(C(=O)O)C(O)C3O)OC(CO)C(O)C2O)C(O)C(O)C1O (stereo not given in full) | 7.2 | -6.6 | 0.299 | 0.6
CC(C)N=C(N)/N=C(\N)Nc1ccc(Cl)cc1 | 23.8 | 3.1 | 0.218 | .
C[C@@H]1CN([C@@H](C)CO)C(=O)Cc2cc(NC(=O)Cc3cn(C)c4ccccc34)ccc2O[C@@H]1CN(C)C(=O)Nc1ccccc1 | 0.4 | 0.6 | 0.037 | .
CCN1CCN(C(=O)C(C)N(c2ccccc2)S(C)(=O)=O)CC1 (stereo not given) | . | -14.5 | . | 1.9
COc1ccccc1-c1nc(SCC(=O)O)n[nH]1 | . | 16.1 | . | 3.1
C[C@@H]1CN([C@@H](C)CO)C(=O)Cc2cc(NC(=O)Nc3cccc4ccccc34)ccc2O[C@@H]1CN(C)Cc1ccccc1 | -15.1 | 21.5 | 0.303 | .
C[C@@H]1CN([C@H](C)CO)C(=O)c2cc(NC(=O)CCC(F)(F)F)ccc2O[C@@H]1CN(C)C | . | -6.5 | -0.125 | 0.6
Cc1cc(O)cc(C)c1Cl | 20.4 | -11.5 | 0.462 | .
Cc1ccc2cc(S(=O)(=O)NCc3ccco3)ccc2c1 | . | -36.1 | . | -5.2
COc1ccc(C2=Nc3ccccc3SC(c3ccccc3)C2)cc1 (stereo not given) | 80.3* | -2.5 | -0.0223 | -0.8
COc1cc(OC)cc(-c2nnc(SCC(=O)Nc3ccccc3)o2)c1 | . | -44.3 | . | -2.6
C[C@H]1CN([C@@H](C)CO)C(=O)Cc2cc(N(C)C)ccc2O[C@@H]1CN(C)C(=O)Nc1cccc2ccccc12 | 6.6 | -1.8 | -0.0767 | .
CCc1c(C)nc(SCC(=O)Nc2ccc(Cl)cc2)[nH]c1=O | . | 22.0 | . | 0.5
C[C@@H]1CCCCO[C@H](CN(C)C(=O)CCCN(C)C)[C@@H](C)CN([C@H](C)CO)C(=O)c2cc(NS(=O)(=O)c3ccccc3)ccc2O1 | . | 0.6 | 4.89* | 0.9
C[C@H](CO)N1C[C@H](C)[C@H](CN(C)CC2CCCCC2)Oc2ccc(NC(=O)Nc3ccccc3)cc2C1=O | 26.7 | -11.1 | -0.631 | 0.6
Cc1ccc(C)c(NC(=O)CN(c2cccc(F)c2)S(C)(=O)=O)c1 | . | 9.9 | . | 0.6
CC(C)NC(=O)N(C)C[C@@H]1Oc2ccc(NC(=O)Cn3cnnn3)cc2CC(=O)N([C@H](C)CO)C[C@@H]1C | -29.1 | -6.8 | -0.215 | 1.4
CNC[C@@H]1Oc2ccc(N(C)C)cc2CC(=O)N([C@H](C)CO)C[C@H]1C | -47.1 | 3.7 | -0.045 | -0.3
COc1ccc(N2C(=O)CC(SCC(=O)Nc3cccc(Br)c3)C2=O)cc1 (stereo not given) | . | -16.0 | . | -1.0
COC(=O)c1ccc(NC(=O)C(C)N(c2ccc(C)cc2)S(C)(=O)=O)cc1 (stereo not given) | . | -16.9 | . | -1.2
COc1ccc(NC(=O)N(C)C[C@@H]2Oc3ccc(N(C)C)cc3CC(=O)N([C@H](C)CO)C[C@@H]2C)cc1 | -16.5 | -7.0 | 0.0844 | .

Only part of the results is shown. The share of hits here may be higher or lower than overall.
